KCNQ2 block: KCNQ2 potassium channel inhibitors, primary screen, cell-based, CHO-K1, FluxOR thallium flux, B-score (AID 2156) | 310,000 tested, 1.1% active | B-score at 10 µM | O88943 | 20 min; active compounds read low; only compounds with negative scores are shown here; some inactives read as strong as hits;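 active = fluorescence ratio B-score at most minus 3 library SDs, with starting brightness B-score within 2 library SDs, cut at about -5.5 in these data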
Target sequence (O88943 whole entry, looked up): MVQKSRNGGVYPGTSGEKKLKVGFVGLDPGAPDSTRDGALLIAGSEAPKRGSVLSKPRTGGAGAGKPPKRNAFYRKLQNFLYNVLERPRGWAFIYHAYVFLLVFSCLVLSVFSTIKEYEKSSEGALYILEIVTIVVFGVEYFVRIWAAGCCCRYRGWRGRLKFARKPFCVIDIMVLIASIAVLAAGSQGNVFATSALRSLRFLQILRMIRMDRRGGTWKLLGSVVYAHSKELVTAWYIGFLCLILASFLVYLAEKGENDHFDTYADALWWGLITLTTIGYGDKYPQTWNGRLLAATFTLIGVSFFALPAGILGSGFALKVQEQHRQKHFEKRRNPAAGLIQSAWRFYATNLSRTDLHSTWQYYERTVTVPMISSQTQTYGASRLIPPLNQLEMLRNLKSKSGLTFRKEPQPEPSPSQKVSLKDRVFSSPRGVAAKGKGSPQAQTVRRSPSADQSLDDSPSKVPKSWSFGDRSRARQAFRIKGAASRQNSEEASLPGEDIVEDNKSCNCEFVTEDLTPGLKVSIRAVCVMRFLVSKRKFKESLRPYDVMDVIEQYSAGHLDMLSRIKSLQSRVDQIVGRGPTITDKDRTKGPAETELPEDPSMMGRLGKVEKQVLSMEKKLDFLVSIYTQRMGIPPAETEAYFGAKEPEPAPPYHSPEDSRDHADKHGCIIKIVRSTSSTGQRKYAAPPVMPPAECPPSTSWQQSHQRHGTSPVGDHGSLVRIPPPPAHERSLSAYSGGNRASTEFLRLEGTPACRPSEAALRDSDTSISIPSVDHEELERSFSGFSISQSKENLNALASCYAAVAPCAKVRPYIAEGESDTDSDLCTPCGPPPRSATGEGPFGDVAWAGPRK
KCNQ2 block baseline: further read-out of KCNQ2 block, marked with its call; B-score; measured here: initial fluorescence intensity artifact check;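 brightness before thallium and not channel activity; 0 = typical well and far values either way flag optical interference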
* marks the source's active call; other numbers are inactive results; i = inactive.

KCNQ2 block	KCNQ2 block baseline	mol
i	0.19	Cc1nn(-c2ccccc2)c(Cl)c1/C=C(\C#N)C(=O)NC(C)C
i	-0.07	O=C(Nc1ccc2nc(-c3ccco3)[nH]c2c1)c1cccs1
i	0.74	Cc1ccc(N(C(=O)CS(=O)CC(=O)Nc2ccc(F)cc2)C(C)C(=O)NC(C)(C)C)cc1 (stereo not drawn)
i	1.9	COc1cc2sc(C)nc2c2sccc12
i	1.8	CN(C)c1ccc(/C=N/OC(=O)Nc2ccccc2)cc1
i	-0.08	C/C(=N/NC(=O)c1ccccc1)C(=O)O
i	0.09	O=C(c1cccc(Cl)c1)N1CCCc2ccccc21
i	-0.13	O=C(O)/C=C/c1ccc(Cn2ccnc2)cc1
i	-1.3	COc1ccc(N2C(=O)NC3CC2(C)Oc2ccc(Br)cc23)cc1OC (stereo not drawn)
i	0.27	COc1cc(C(=O)Nc2nccs2)c(Br)c(OC)c1OC
i	0.91	COc1cc(OC)c(C2C(C#N)=C(N)OC3=C2C(=O)CC(C)C3)cc1OC (stereo not drawn)
i	0.14	Cc1ccc(C)c(NC(=O)CN(C)C(=O)/C=C/c2ccco2)c1
i	0.73	Cc1c(NC(=O)c2ccc3c4c(cccc24)CC3)c(=O)n(-c2ccccc2)n1C
i	3.1	O=c1c2ccccc2nnn1Cc1cccc2ccccc12
i	4.9	Cc1ccc(C)c(NC(=S)NCCc2ccc(S(N)(=O)=O)cc2)c1

(next part)
KCNQ2 block	KCNQ2 block baseline	mol
i	-0.03	O=C(COC(=O)c1ccccc1-n1cnnn1)c1ccc(Br)cc1
i	-0.63	Cc1ccc(Sc2ccc(CN3CCCC3)cc2[N+](=O)[O-])cc1
i	-1.1	Cc1ccccc1C(=O)NC1CCN(Cc2nnnn2C(C)(C)C)CC1
i	-0.8	C/C(=N/Nc1nc(-c2ccccc2)c(CC(=O)O)s1)c1ccccc1
i	0.26	CCOc1ccccc1C1C(C#N)=C(N)Oc2cc(N)ccc21 (stereo not drawn)
i	-0.14	Cc1cccc2cc(CN(Cc3cccnc3)C(=O)c3ccncc3)c(=O)[nH]c12
i	1.6	O=C(CN1CCN(c2nc(-c3ccc(Cl)cc3)cs2)CC1)NCc1ccco1
i	-0.31	CC1(C)Cc2cccc(OCC(=O)N3CCN(S(=O)(=O)c4ccccc4F)CC3)c2O1
i	-0.91	COc1cccc2sc(=NC(=O)CCS(=O)(=O)c3ccc(C)cc3)n(C)c12
i	-1.5	O=C(Nc1cc(Cl)ccc1N1CCOCC1)c1ccc2c(c1)OCCO2
-7.4*	1.4*	Cc1ccc2c(c1)-c1ncc(C(=O)c3cc(Br)ccc3O)cc1CO2
i	-0.02	Cc1cnc(NC(=O)CSc2nnc(N)s2)s1
i	0.45	O=C(NCCCn1ccnc1)C1CC2CCC1C2 (stereo not drawn)
i	-1.6	CCOC(=O)N/N=C\c1ccc(OC/C=C/c2ccccc2)c(OC)c1
i	0.69	CC1CCN(CCc2nc3cc(NC(=O)Nc4ccccc4)ccc3n2C)CC1

New compounds follow
KCNQ2 block	KCNQ2 block baseline	mol
i	-0.91	O=C(O)CSc1nnc(CSc2nc3ccccc3s2)n1-c1ccccc1
i	-0.51	COCCNC(=O)CN(C(=O)CCC(=O)Nc1ccccn1)c1cc(C)ccc1C
i	0.53	O=c1[nH]nc(Cc2ccc(-c3cccc(Cl)c3)o2)c2ccccc12
i	0.04	COc1ccc(NC(=O)NC2(C(=O)N3CCN4CCCC4C3)CCCCC2)cc1 (stereo not drawn)
i	1.3	Cc1ccc(NC(=O)CN2C(=O)CCS(=O)(=O)c3ccccc32)cc1Cl
i	1.2	Cc1ccc(S(=O)(=O)N(C)c2ccc(OCC(=O)O)cc2)cc1
i	0.55	Cc1nc(-c2ccccc2)sc1-c1nc(-c2cccnc2)ncc1S(=O)(=O)c1ccccc1
i	0.14	Cn1c(/C(C#N)=C/c2ccncc2)nc2ccccc21
i	-0.03	Cc1ccsc1/C=N/NC(=O)Cc1ccc(Cl)cc1
i	0.26	Cc1ccc(/C=N/NC(=O)c2c(-c3ccccc3)noc2C)o1
i	2.1	Fc1ccc(CSc2nnc(-c3cc4c(s3)-c3ccccc3CC4)o2)cc1
i	-0.66	CCOC(=O)N1CCN(S(=O)(=O)c2ccc(C(=O)Nc3nnc(CSC)o3)cc2)CC1
i	1.3	O=C1CCC(=O)N1c1ccc(CSc2nnnn2C2CCCCC2)cc1
i	-1	O=C(Nc1cccc(C(=O)Nc2cccc(C(F)(F)F)c2)c1)c1ccc(=O)[nH]c1
i	-0.1	O=C(N/N=C/c1ccc(O)c([N+](=O)[O-])c1)C(O)(c1ccccc1)c1ccccc1

The list goes on.
KCNQ2 block	KCNQ2 block baseline	mol
i	2.3	CCCN(CCC)CC(O)CN1C(=O)N(CN2C(=O)N(CC(O)CN(CCC)CCC)C(=O)C2(C)C)C(C)(C)C1=O (stereo not drawn)
i	-0.03	CCc1ccc(CN(C)C(=O)CCc2nnc(COc3ccccc3)o2)cc1
i	0.22	Cc1ccc(C)n1-n1c(C)nc2scc(-c3cccs3)c2c1=O
i	-0.01	CCOc1ccc(NC(=O)CCc2nnc3ccc(N4CCC5(CC4)OCCO5)nn23)cc1
i	-2.8	CCOC(=O)CCN(Cc1cccs1)S(=O)(=O)c1ccc(Cl)cc1
i	0.34	COc1ccc2[nH]cc(C(=O)CN3CCCCC3)c2c1
i	0.2	Cn1c(N)c(C(=O)CSc2nc3ccccc3[nH]2)c(=O)n(C)c1=O
i	1.3	Cc1ccc2cc3cc(C(=O)N4CC(C)CC(C)C4)oc3nc2c1 (stereo not drawn)
i	0.05	Cc1ccc(CSc2ncccc2C(=O)O)cc1
i	-0.99	COC(=O)CCc1sc(Nc2ccc(Br)cc2)nc1-c1ccc(OC)cc1
i	0.76	CCc1c(C)sc2nc3c(C(=O)N4CCOCC4)cc(C(=O)c4ccccc4O)cn3c(=O)c12
i	-3.4	COc1ccc(C(=O)Nc2c3c(nn2C(C)(C)C)CS(=O)(=O)C3)cc1OC
i	-0.04	CCC1CCCCN1C(=O)CSc1nnc(-c2c[nH]c3ccccc23)o1 (stereo not drawn)
i	0.9	COc1ccc(CC(NC(C)=O)C(=O)NC2CCN(S(=O)(=O)c3ccccc3)CC2)c(OC)c1 (stereo not drawn)
i	-1.2	Cc1ccc(C(=O)N/C(=C\c2ccco2)C(=O)N2CC(C)OC(C)C2)cc1C (stereo not drawn)

More compounds follow.
KCNQ2 block	KCNQ2 block baseline	mol
i	-2.4	CCOc1cc(C)c(Cl)cc1S(=O)(=O)NCc1ccco1
i	-1.7	C/C(=N\NC(=O)c1ccc2c(c1)OCO2)c1ccc(O)cc1
i	-0.43	Cc1ccc(C(O)(CNCc2ccccc2)c2ccccc2)cc1 (stereo not drawn)
i	0.65	CCOC(=O)C1=C(SCC(=O)Nc2ccccc2)NC(=O)C(C#N)C12CCCCC2 (stereo not drawn)
i	2.6	C/C(=N\OC(=O)c1ccc(OC(C)C)cc1)c1ccc(C)c(C)c1
i	3.1	O=S(=O)(c1cc(Cl)ccc1Cl)N1CCNCC1
i	0.04	O=C(Oc1ccc(-c2nnco2)cc1)N1CCCCC1
i	-0.7	Cc1ccccc1OCCSCc1nc2ccccc2[nH]1
i	0.03	COc1ccc(NC(=O)CSc2ccc3nnc(-c4ccccn4)n3n2)c(OC)c1
i	0.45	Cc1cc2oc(=O)cc(CN(C)Cc3ccc(OC(F)F)cc3)c2cc1Cl
i	-0.8	COc1cccc(-n2ccnc2SCC(=O)N2CCc3ccccc32)c1
i	1.2	COc1ccc2c(c1)C(C)=CC(C)(C)N2C(=O)Nc1ccccc1
i	-0.05	CCOc1ccc(S(=O)(=O)N2CCC(C(=O)OC(C)C(=O)N3CCOCC3)CC2)cc1 (stereo not drawn)
i	-0.26	CCn1c(C)nc2cc(C(=O)NNC(=S)Nc3ccc(C)cc3)ccc21
i	1.4	CCC(C)NC(=O)CSc1nc2ccccc2c(=O)n1Cc1ccc(OC)cc1 (stereo not drawn)

Another view of 15 compounds above.
| compound | KCNQ2 block | KCNQ2 block baseline |
| --- | --- | --- |
| Cc1nn(-c2ccccc2)c(Cl)c1/C=C(\C#N)C(=O)NC(C)C | i | 0.19 |
| O=C(Nc1ccc2nc(-c3ccco3)[nH]c2c1)c1cccs1 | i | -0.07 |
| Cc1ccc(N(C(=O)CS(=O)CC(=O)Nc2ccc(F)cc2)C(C)C(=O)NC(C)(C)C)cc1 (stereo not drawn) | i | 0.74 |
| COc1cc2sc(C)nc2c2sccc12 | i | 1.9 |
| CN(C)c1ccc(/C=N/OC(=O)Nc2ccccc2)cc1 | i | 1.8 |
| C/C(=N/NC(=O)c1ccccc1)C(=O)O | i | -0.08 |
| O=C(c1cccc(Cl)c1)N1CCCc2ccccc21 | i | 0.09 |
| O=C(O)/C=C/c1ccc(Cn2ccnc2)cc1 | i | -0.13 |
| COc1ccc(N2C(=O)NC3CC2(C)Oc2ccc(Br)cc23)cc1OC (stereo not drawn) | i | -1.3 |
| COc1cc(C(=O)Nc2nccs2)c(Br)c(OC)c1OC | i | 0.27 |
| COc1cc(OC)c(C2C(C#N)=C(N)OC3=C2C(=O)CC(C)C3)cc1OC (stereo not drawn) | i | 0.91 |
| Cc1ccc(C)c(NC(=O)CN(C)C(=O)/C=C/c2ccco2)c1 | i | 0.14 |
| Cc1c(NC(=O)c2ccc3c4c(cccc24)CC3)c(=O)n(-c2ccccc2)n1C | i | 0.73 |
| O=c1c2ccccc2nnn1Cc1cccc2ccccc12 | i | 3.1 |
| Cc1ccc(C)c(NC(=S)NCCc2ccc(S(N)(=O)=O)cc2)c1 | i | 4.9 |

Additional results.
KCNQ2 block	KCNQ2 block baseline	mol
i	0.28	COc1ccc(N/C=C/C(=O)c2ccc(Oc3ncccn3)cc2)cc1
i	-0.17	CCN(C(=O)CSc1n[nH]c(-c2cccs2)n1)C1CCS(=O)(=O)C1 (stereo not drawn)
i	1.1	COC(=O)CC(c1ccccc1F)N1Cc2ccccc2C1=O (stereo not drawn)
i	-0.01	Cc1ccc(C2CC(C(F)(F)F)n3nc(C(=O)NCCN4CCOCC4)cc3N2)cc1 (stereo not drawn)
i	-2.2	COc1ccccc1C(=O)NCCC(=O)NNC(=O)c1ccccc1O
i	0.65	O=C(NCc1cccnc1)c1cc(C(=O)C2CC2)c[nH]1
i	-1.8	CCN(CC)c1ccc(NC(=O)CN2CCN(CC(=O)Nc3ccccc3F)CC2)cc1
i	0.55	O=S(=O)(Nc1ccc(N2CCOCC2)cc1)c1ccc2ccccc2c1
i	0.63	C=CC[C@@H]1Cc2c(Br)ccc(Br)c2[C@@H](CC=C)N1
i	0.22	Cc1ccc(C)c(OCCC(=O)OCC(=O)NC(=O)NC2CCCC2)c1
i	2.6	NC(=O)c1cccn1-c1ncc(C(F)(F)F)cc1Cl
i	-0.57	COC(=O)C(Cc1c[nH]c2ccccc12)NC(=O)C(=O)c1c[nH]c2ccccc12 (stereo not drawn)
i	1.2	Cc1ccc2c(c1)C(c1ccc(O)cc1)(c1ccc(O)cc1)C(=O)N2C
i	-1.6	O=C(c1cc2ccccc2o1)N1CCN(Cc2ccc3c(c2)OCO3)CC1
i	-1.1	COC(=O)[C@@H](N)Cc1ccc(O)cc1

(cont.)
KCNQ2 block	KCNQ2 block baseline	mol
i	2	Cc1ccc(CSCCNS(=O)(=O)c2ccc([N+](=O)[O-])cc2)cc1
i	-1.1	O=C(CNC(=O)c1cc(S(=O)(=O)N2CCCCC2)ccc1N1CCOCC1)Nc1ccc(F)c(F)c1
i	16	CC1(C)CC(=O)C2=C(C1)OC1=C(C(=O)CC(C)(C)C1)C2c1ccc(O)cc1O
i	1.6	CC(C)[C@H](NC(=O)[C@@H]1Cc2ccccc2CN1)C(=O)NC1CCCCC1
i	1.1	COC(=O)C1C(=O)c2c(n[nH]c2C)CC1(C)C (stereo not drawn)
i	0.93	CC(=O)S[C@@H]1CC2=CC(=O)CC[C@]2(C)[C@H]2CC[C@@]3(C)[C@@H](CC[C@@]34CCC(=O)O4)[C@H]12
-6.1*	-1.1*	Cc1cccc(CSc2nnc(-c3cccs3)n2Cc2ccco2)c1
i	2.1	O=C1CC2CS(=O)(=O)CC2N1c1ccc(Cl)cc1Cl (stereo not drawn)
i	0.35	Cc1ccc2nc(SCC(=O)Nc3cccc([N+](=O)[O-])c3)[nH]c2c1
i	0.57	COc1ccc(NC(=O)CSc2nnc(-c3ccoc3C)n2CCc2ccccc2)cc1
i	0.02	Cc1ccccc1-n1c(SCC(=O)N/N=C/C=C/c2ccccc2[N+](=O)[O-])nc2ccccc2c1=O
i	-0.16	CCOC(=O)N1CCC(NC(=O)C2CCCN(Cc3nc(-c4cccc(Cl)c4)oc3C)C2)CC1 (stereo not drawn)
i	0.85	CCOC(Cn1c(SCc2cc(C(C)=O)ccc2OC)nc2ccccc2c1=O)OCC
i	0.49	Cc1nn(-c2cc(C)c3ccccc3n2)c2c1C1C(C2)C1(C)C (stereo not drawn)
-6.9*	0.34*	CCCCCCN1CC(=O)N2Cc3[nH]c4ccccc4c3C[C@H]2C1=O

(more compounds)
KCNQ2 block	KCNQ2 block baseline	mol
i	-2.5	Cn1c(=O)c2c(nc(NCCNC(=O)c3ccco3)n2Cc2ccccc2Cl)n(C)c1=O
i	0.91	CC(=O)N1CCN=C1SCc1ccc(Cl)cc1
i	2.3	O=c1[nH]ncc(N/N=C/c2ccccc2)c1Cl
i	-0.17	C=CCOc1cc(OC)c(OC)c(OC)c1
i	0.13	COc1ccc(Cc2noc(CN3CCN(c4ccc(Cl)cn4)CC3)n2)cc1OC
i	-0.91	CSc1ccccc1NC(=O)CN(c1cccc(C)c1)S(C)(=O)=O
i	0.21	CCCCn1c(N)c(N(CC(C)C)C(=O)COC(=O)Cc2c(C)nc3ccccc3c2C)c(=O)[nH]c1=O
i	2.1	Cc1cccc2cc(-c3nc4c(C)cccn4c3NCc3ccco3)c(=O)[nH]c12
-7*	0.35*	Clc1ccc(-c2nnc(-c3ccc(Br)cc3)c(N3CCSCC3)n2)cc1
i	1.2	C=CCSc1nnc(-c2ccc([N+](=O)[O-])cc2)o1
i	0.64	O=C(Nc1cc(S(=O)(=O)N2CCOCC2)ccc1N1CCOCC1)c1ccc(Cl)nc1

This is a subset; rates above refer to the full screens.
